Sa RN4220 lethal: S. aureus RN4220 growth inhibition | OD600, 16 h | inhibition, % (test concentration not listed) | hit rate 0.33% among 330,000 | AID 1259311;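 active = z-score of -3 or lower and OD600 up to 0.18 on both plates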;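 also: plate controls were untreated cells for no effect and reference antibiotic for full effect; stock transfer was 100 nL into about 80 µL; one replicate is shown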
PrP UTR inh: inhibition of PrP 5' UTR reporter expression | cell-based PrP 5' UTR mRNA reporter, plate reader | inhibition, % (test concentration not listed) | hit rate 0.35% among 340,000 | AID 488862;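 active = every replicate at 50% or more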;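 also: 0 = median of the neutral control wells; tested in H4 reporter cells; numbers are from one replicate; inactives centre near -14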
Autofluor counter: flagged as autofluorescent in microsphere protease counterscreen. compound autofluorescence counterscreen, microsphere flow cytometry; stronger effect = higher value. fluorescence intensity (no concentration beside the values). hit rate 3.1% among 360,000. AID 624483;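 active = at least 3 SD above the mean of all compounds, about 16000 in these data; inconclusive = too few beads counted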;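 also: 100 nL of 1 mM stock went into each well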
Sa ugtP lethal: compounds lethal to S. aureus RN4220 ugtP deletion mutant. growth inhibition, % (no concentration beside the values). OD600 growth, 16 h; some inactives read as strong as hits. hit rate 0.54% among 330,000;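 active = z-score under -3 and OD600 up to 0.15 on both plates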;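 also: plate controls were untreated wells for no effect and antibiotic for full effect; wells of about 80 µL received 100 nL stock; the first replicate is given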
BJeLR lethal: kills HRASV12-expressing BJeLR cells. BJeLR (HRASV12) viability, CellTiter-Glo ATP luminescence, 48 h; reference of the scale not given here. inhibition, % (concentration not given with the values). hit rate 0.17% among 300,000;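 active = replicate mean above 50%; inconclusive = above 50% but judged a plate artefact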;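 also: 50 nL library stock added to about 25 µL; numbers are from one replicate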
Mtb hypoxia rep: reduces hypoxia-regulated biosensor signal in M. tuberculosis | M. tuberculosis hypoxia-regulated fluorescent reporter, fluorescence | fluorescence inhibition, % (no concentration beside the values) | hit rate 0.1% among 300,000;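 active = 35 to 45% if threefold the growth effect, above 45% if 1.5-fold the growth effect; inactive = the rest, general growth blockers included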;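 also: wells of about 50 µL received 100 nL stock; 0% = vehicle wells and 100% = reference inhibitor wells; whole bacteria with a GFP reporter of the hypoxia response; strong numbers were not always called active; many hits fall short of the cut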
Mtb hypoxia rep growth: further read-out of Mtb hypoxia rep, marked with its call; growth inhibition, %; measured here: M. tuberculosis growth (absorbance);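 0% = vehicle and 100% = reference antibiotic; read after six days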
Active calls of the source: *; ? = inconclusive; . = not tested or not shown. Compounds as they come. About 4% of those tested had a hit in this group.

SMILES | Sa RN4220 lethal | PrP UTR inh | Autofluor counter | Sa ugtP lethal | BJeLR lethal | Mtb hypoxia rep | Mtb hypoxia rep growth
COc1ccc(NC(=O)CSc2nnc(NC(=O)C3CCC3)s2)cc1 | 1.9 | 8 | 4626 | 5 | -1 | 10 | -1
N#C/C(N=Nc1ccccc1O)=N\Nc1ccccc1O | . | -29 | 3828 | . | 56* | . | .
COC(=O)c1c(NC(=O)c2c(Cl)cnn2C)sc(C)c1C | 9.0 | -2 | 2611 | 2 | 3 | 6 | 2
COc1cc(C(=O)NCC(=O)OCn2nnc3ccccc3c2=O)cc(OC)c1OC | 2.2 | -17 | 4244 | 8 | 1 | 0 | 0
CN(Cc1ccccc1)C(=O)c1ccc(NC(=O)Cc2cccc(NC(=O)C3CCCN(C(=O)C4CCCCC4)C3)c2)cc1 (centres undefined) | 6.0 | 6 | 2949 | 3 | . | 17 | 5
O=C(NCCCN1CCOCC1)c1onc(CSc2ccccc2)c1C(=O)NCCCN1CCOCC1 | 3.3 | 8 | 3702 | -7 | 1 | 6 | 5
CC(C)c1nc(C(=O)N2CCCC(N3CCN(c4cccc(Cl)c4)CC3)C2)cs1 (centres undefined) | 0.5 | -16 | 6103 | -1 | -3 | 10 | -5
COCCN(C(=O)Cc1cccs1)C(C(=O)NCc1ccc(OC)cc1)c1ccc(OC)cc1 (centres undefined) | 1.9 | -9 | 9021 | 2 | 1 | -4 | 7
O=C(CS(=O)(=O)c1cn(CC(=O)N2CCOCC2)c2ccccc12)NCc1ccccc1 | -0.1 | -12 | 6022 | -1 | 3 | 10 | 3
CCOC(=O)Cc1csc(SCC(=O)Nc2cc(C)ccc2OC)n1 | 2.2 | -19 | 4857 | 1 | 4 | 0 | 8
Cc1ccc(C(=O)CSc2nnc3ccccn23)c(C)c1 | 5.3 | -52 | 4353 | 6 | -30 | 14 | 8
CCOc1ccc(NC(=O)COC(=O)Cn2cnc3ccccc32)cc1 | 3.4 | -27 | 8577 | 8 | . | 11 | 6
C/C(=N\N1CCN(C2c3ccccc3-c3ccccc32)CC1)c1ccncc1 | . | -16 | 3490 | . | -2 | . | .
Cn1cc(/C=C2\SC(=O)N(c3ccccc3)C2=O)c2ccccc21 | -8.6 | -116 | 6862 | -9 | 0 | 1 | -3
Cc1cc(C)nc(NS(=O)(=O)c2ccc(NC(=O)c3cc(-c4ccccc4)nc4ccccc34)cc2)n1 | -0.8 | -2 | 2541 | -13 | -1 | 12 | -1
C#Cc1cccc(-n2nnc(C(=O)OC)c2-c2ccccc2)c1 | 5.7 | -11 | 3702 | 6 | -4 | 4 | -2
COc1ccc(C(=O)NCC(=O)N2CCc3ccccc3C2)cc1 | -1.8 | 3 | 3403 | 3 | 0 | -9 | -22
Cc1ccccc1N(C(=O)c1snc(C(N)=O)c1N)C(C(=O)NCC1CCCO1)c1ccc(N(C)C)cc1 (centres undefined) | -0.4 | 10 | 4034 | 1 | -2 | 7 | 13
CC1(C)CC(NC(=O)COc2ccccc2Cl)CC(C)(C)N1 | 5.1 | 13 | 1937 | 12 | -20 | 5 | 14
CCOc1ccc(C(=O)Nc2cccc(-c3ccc(N4CCOCC4)nn3)c2)cc1OCC | 0.4 | -40 | 5852 | 0 | -10 | 7 | 4

Exported tab-delimited: part of the list above
compound	Sa RN4220 lethal	PrP UTR inh	Autofluor counter	Sa ugtP lethal	BJeLR lethal	Mtb hypoxia rep	Mtb hypoxia rep growth
Cc1ccc(C(=O)CSc2nnc3ccccn23)c(C)c1	5.3	-52	4353	6	-30	14	8
CCOc1ccc(NC(=O)COC(=O)Cn2cnc3ccccc32)cc1	3.4	-27	8577	8	.	11	6

New compounds follow.
SMILES | Sa RN4220 lethal | PrP UTR inh | Autofluor counter | Sa ugtP lethal | BJeLR lethal | Mtb hypoxia rep | Mtb hypoxia rep growth
COc1cccc(-c2nc(NCc3ccccc3)c3ccccc3n2)c1O | -12 | 43 | 3478 | -9 | -5 | -5 | -5
CCOC(=O)c1c(NC(=O)CN2CCN(C(=O)c3ccco3)CC2)sc(C)c1C | 3.3 | -12 | 6423 | 4 | -5 | 9 | -18
CCn1c(=O)cc(O)c2ccccc21 | -1.6 | -12 | 3677 | 2 | 7 | . | .
CCOc1ccc(S(=O)(=O)N2CCC(C(=O)NCc3ccco3)CC2)cc1 | 1.0 | -6 | 5172 | 7 | 1 | 0 | -8
S=C(NCC1COc2ccccc2O1)Nc1ccccc1 (centres undefined) | -3.0 | -2 | 4297 | 2 | 4 | -2 | 2
CCc1ccc2oc(C(=O)N3CCN(c4ccccc4OC)CC3)cc(=O)c2c1 | -5.2 | -33 | 3781 | 12 | 1 | 9 | 8
COc1cc(/C=N/NC(=O)c2ccc(CSc3nc4ccccc4[nH]3)cc2)cc(OC)c1OC | . | -30 | 2483 | . | -4 | . | .
O=C(CSc1nnc(-c2ccccc2)c(-c2ccccc2)n1)NCC1CCCO1 (centres undefined) | -1.7 | 0 | 3752 | 0 | . | 5 | 6
CCCCCCc1c(O)nc(SCCN(C)C)[nH]c1=O | 10 | -3 | . | 2 | 0 | 2 | -1
CCOc1cccc(C2NC(=S)NC(C)=C2C(=O)Nc2ccccc2)c1 (centres undefined) | -1.0 | -14 | 2118 | 0 | -7 | 3 | 1
COc1cc(/C=C\C(=O)NCc2ccc3[nH]c(C)cc3c2)cc(OC)c1OC | 1.8 | -49 | 5749 | -8 | -10 | -4 | 10
Cc1ccc(S(=O)(=O)NN=C2C3CC4CC(C3)CC2C4)cc1 | -0.3 | 4 | 4585 | 6 | 1 | 5 | 7
CCN1CCN(C(=O)c2ccc3c(c2)N(Cc2ccccc2)C(=O)c2ccccc2S3=O)CC1 (centres undefined) | 4.4 | -18 | 5952 | -4 | 7 | -4 | -2
CC(NCC(O)COCc1ccc(Cl)cc1)c1ccccc1 (centres undefined) | 0.3 | -12 | 2268 | 9 | -3 | 13 | 16
CC(C)N(Cc1ccccc1)C(=O)CN1C(=O)NC2(CCCCCC2)C1=O | 0.8 | -13 | . | 6 | . | 3 | 4
Nc1nnc(-c2ccc(Cl)c([N+](=O)[O-])c2)s1 | 7.7 | 19 | 4488 | 3 | 0 | 12 | 12
CCOc1ccc(C(=S)NC2CCCCC2)cc1 | 3.1 | -58 | 20072* | -1 | -3 | 12 | 10
COC(=O)CC(=O)O[C@H]1C=C[C@@H](NC(=O)OC(C)(C)C)C1 | 4.6 | -18 | 3091 | 9 | . | 0 | 1
Cc1cc2nc3ccc(N(C)C)cc3nc2cc1N | . | 35 | 4445 | . | 8 | . | .
CC(Oc1cccc(Cl)c1)C(=O)Nc1cc(=O)n(C)c(=O)n1C (centres undefined) | -0.3 | -9 | 9750 | -7 | 2 | 7 | 8
Cc1onc(-c2c(Cl)cccc2Cl)c1CON=C(C#N)c1c(Cl)cccc1Cl | 3.8 | . | . | 0 | . | 5 | 2
CCCCN1C(=S)NCC1Cc1ccccc1 (centres undefined) | 3.6 | . | . | 3 | . | 14 | 9
CCCCCn1c(=O)[nH]c2cc(C(=O)NCCCN(CC)CC)ccc2c1=O | 1.3 | -9 | 6292 | 8 | -4 | 11 | 4
Cc1[nH]c2ccc(C(=O)N3CCN(Cc4ccccc4)CC3)cc2c1C | -4.6 | -11 | 3809 | -6 | -2 | -10 | -5
Cc1cc(NC(=O)CCC(=O)N(Cc2ccco2)C2(C(=O)NC3CCCCC3)CCCC(C)C2)no1 (centres undefined) | 2.5 | -7 | 3106 | 5 | 0 | 10 | 2
O=C1NCC(O)=C1C=NCCCO | 2.4 | -1 | 12575 | 0 | -7 | 8 | 12
CCOC(=O)C1=CNS(=O)(=O)NC1c1ccc(OC(C)=O)cc1 (centres undefined) | 0.4 | -17 | 3940 | 7 | . | 1 | 0
O=C(CSc1nnc2ccccn12)Nc1cccc(S(=O)(=O)N2CCOCC2)c1 | 0.8 | -15 | 7472 | 5 | -1 | 7 | -2
CCOC(=O)CSc1nc2ccsc2c(=O)[nH]1 | 6.4 | -29 | 5030 | 5 | -4 | 15 | 7
Cc1ccc(N(C)C(=O)CCNC(=O)Cn2cnc3ccccc3c2=O)cc1C | 0.9 | -22 | 5577 | 4 | 10 | -6 | -9
COc1cc2c(c(OC)c1OC)-c1c(cc(OC)c(OC)c1OC)C[C@](C)(O)[C@@H](C)C2 | . | -23 | 3962 | . | 5 | . | .
COc1ccc(/C=N/NC(=O)c2ccn[nH]2)cc1CSc1ccccn1 | . | -44 | 5372 | . | 1 | . | .
O=C(Nc1ccc(F)cc1)c1ccccc1S(=O)(=O)c1ccccc1[N+](=O)[O-] | -1.5 | -11 | 2482 | -2 | -6 | -6 | 6
Nc1ccn(-c2ccc(Cl)cc2)c(=O)c1 | -13 | -7 | 2201 | 3 | -3 | . | .
O=C(COC(=O)CCN1C(=O)c2ccccc2C1=O)Nc1ccc(S(=O)(=O)N2CCCC2)cc1 | 4.3 | 3 | 3840 | 0 | 17 | 6 | 10
Cn1c(O)c(/C=N/NC(=O)c2ccncc2)c(=O)n(C)c1=S | 2.8 | -32 | 4766 | 3 | 2 | 9 | -2
CC(=NN1CCN(Cc2ccccc2)CC1)c1ccc(Br)cc1 | 3.4 | . | . | 10 | . | 3 | -4
Cc1ccc(S(=O)(=O)N2CCN(Cc3cc(=O)n4ccccc4n3)CC2)c(C)c1 | -1.3 | -8 | ? | -7 | . | -7 | 8
COc1cc2[nH]c(=S)n(Cc3cccs3)c(=O)c2cc1OC | -7.6 | -13 | 4424 | 7 | 0 | 6 | 14
CCOc1ccccc1C(=O)Nc1ccc(S(=O)(=O)N2CCOCC2)cc1 | -6.0 | -10 | 2833 | -6 | -8 | 8 | 6

Sorted by heavy-atom count (ascending): part of the list above.
SMILES | Sa RN4220 lethal | PrP UTR inh | Autofluor counter | Sa ugtP lethal | BJeLR lethal | Mtb hypoxia rep | Mtb hypoxia rep growth
Cn1c(O)c(/C=N/NC(=O)c2ccncc2)c(=O)n(C)c1=S | 2.8 | -32 | 4766 | 3 | 2 | 9 | -2
CCOc1ccccc1C(=O)Nc1ccc(S(=O)(=O)N2CCOCC2)cc1 | -6.0 | -10 | 2833 | -6 | -8 | 8 | 6
COc1cc2c(c(OC)c1OC)-c1c(cc(OC)c(OC)c1OC)C[C@](C)(O)[C@@H](C)C2 | . | -23 | 3962 | . | 5 | . | .

Carrying on:
SMILES | Sa RN4220 lethal | PrP UTR inh | Autofluor counter | Sa ugtP lethal | BJeLR lethal | Mtb hypoxia rep | Mtb hypoxia rep growth
COc1ccc(NC2=CC(=S)NC(C)(C)C2)cc1 | 5.2 | -8 | 26336* | 1 | 4 | 3 | 3
COCCCNC(=S)N/N=C/c1ccc(N(C)C)cc1Cl | . | -44 | 3657 | . | 7 | . | .
CN1C(=O)/C(=C/c2cn(CC(=O)N3CCCCC3)c3ccccc23)NC1=S | 5.7 | -14 | 5676 | 6 | . | 1 | 2
C/C=C(\C)C(=O)N[C@@H](c1ccccc1)[C@@H](O)C(=O)O[C@H]1C[C@@]2(O)[C@@H](OC(=O)c3ccccc3)C3[C@](C)(C(=O)[C@H](OC(C)=O)C(=C1C)C2(C)C)[C@@H](O)C[C@H]1OC[C@@]31OC(C)=O (some centres undefined) | 2.4 | . | 5173 | -6 | 29 | . | .
CCOc1ccc(NS(=O)(=O)c2ccc(C(=O)NCCCN3CCCC3=O)cc2)cc1 | -5.6 | -13 | 5137 | 2 | -8 | 2 | 0
CSc1nc(S(C)(=O)=O)nc2[nH]c(=O)[nH]c12 | 3.8 | 6 | 3573 | 7 | . | 1 | 5
COc1ccc(S(=O)(=O)n2cnc3cc(C)c(C)cc32)cc1 | 7.0 | -9 | 4243 | -8 | 3 | 10 | 6
NC(=O)C1CCN(c2nc(-c3ccccc3N)cs2)CC1 | 0.7 | -33 | 4181 | -1 | . | 7 | 9
CCCCOP(=O)(OCCCC)C(O)c1ccc(N(C)C)cc1 (centres undefined) | 1.5 | -13 | 5736 | 2 | 5 | -2 | 4
Cc1ccc(C)c(OCCC(=O)OCC(=O)NC(=O)NC2CCCCC2)c1 | -0.7 | -9 | 3567 | 3 | . | 1 | 2
CC(C)CC(=O)NC(=S)Nc1ccc(N2CCCC2)c(Cl)c1 | 3.8 | -17 | ? | 3 | 10 | 14 | 23
COc1ccccc1N1CCN(C(=O)c2ccc(Cl)c(S(=O)(=O)N3CCOCC3)c2)CC1 | -0.3 | -5 | 4899 | 4 | -6 | 9 | 0
COc1ccc(C2/C=C\CN(C(=O)OCc3ccccc3)CC(=O)N2Cc2ccc(F)cc2)cc1 (centres undefined) | . | 3 | 4107 | . | -1 | . | .
COc1ccc(-c2c(NC(C)=O)n(C)c3ccccc3c2=O)cc1 | -0.3 | -10 | 16417* | -5 | 7 | -6 | -8
